TRPV1 PAM: HTS Assay for Compounds that Act as Potentiators of the Vanilloid Receptor 1; Transient receptor potential cation channel subfamily V member 1 (Homo sapiens), Q8NER1; TRPV1-expressing cells, Fluo-8 calcium influx, capsaicin EC20 potentiation; host cell line not named in the record; control for the full effect not named in the record; potentiation, % at 8.33 µM; 320,000 compounds, 0.02% hits; AID 540277, 2011; active means potentiation above 80%; inconclusive means 30% to 80%; inactive means below 30%; also: 0% is about no effect
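Fluo-8 calcium influx in TRPV1-expressing cells, kinetic read (ex 480/em 520 nm). Compound added and read 3 min for agonist activity, followed by capsaicin at EC20 final and 2 min further read for enhancement.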
ClpP mod: qHTS Assay for Activators of ClpP. ATP-dependent Clp protease proteolytic subunit (Bacillus subtilis (strain 168)), P80244. purified B. subtilis ClpP, FRET peptide cleavage, 20 min. Potency, µM (top dose mostly 57.5 µM), without a hit: at the top dose activity change, negative = active. 340,000 compounds, 1.9% hits. AID 651965, 2013; active = well fitted falling curve with a large enough effect; inconclusive = small, poorly fitted or top-dose-only effect; inactive = no such curve, though single readings can be large or run the other way; also: potency is read from the fitted curve at half-maximal effect; the source files actives as falling curves though it sought activators and does not explain the sign; nearly all actives have a fitted effect of over 65% in size; many hits overshoot -100%
Target sequence (P80244 whole entry, looked up): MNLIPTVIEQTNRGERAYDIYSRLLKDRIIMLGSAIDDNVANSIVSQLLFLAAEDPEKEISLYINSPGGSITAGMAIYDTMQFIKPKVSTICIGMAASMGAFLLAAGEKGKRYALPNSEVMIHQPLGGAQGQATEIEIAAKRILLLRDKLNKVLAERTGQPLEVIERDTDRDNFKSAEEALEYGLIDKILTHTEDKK
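FRET quenching reversal measured ClpP activation: 10 microg/mL B. subtilis ClpP at pH 8 with the FRET-FV decapeptide, read at 430 nm after 320 nm excitation. The 20-min minus 0-min signal was scaled between DMSO/no-enzyme wells and ADEP (5.8 microM final).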
Sfp inh: qHTS Assay for Inhibitors of Bacillus subtilis Sfp phosphopantetheinyl transferase (PPTase); AID 1490, 2009; Potency, µM, for inactives: max response, negative = inhibition, usual class: inhibitors; 310,000 compounds, 3.5% hits; Biochemical Sfp PPTase activity, qHTS; 4'-phosphopantetheinyl transferase ffp (Bacillus subtilis), Q9F4F7; active = well fitted inhibition curve with a large enough effect; inconclusive = small, poorly fitted or top-dose-only effect, or another doubt; inactive = no such curve, though single readings can be large or run the other way;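 also: the enzyme is Sfp with the accession as filed and its product quenches rhodamine fluorescence; potency is read from the fitted curve at half-maximal effect; 0% = enzyme reaction without inhibitor and -100% = no enzyme wells; top concentration of the series not given in the record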
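Fluorescence-quenching assay: 15 nM Sfp-PPTase preincubated 15 min at room temperature with compound, then 5 uM rhodamine-CoA and 12.5 uM BHQ-2-labelled YbbR peptide added. Fluorescence (ex 525/em 598 nm) read at start and after 30 min; difference gives rate.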
Menin-MLL FL inh: qHTS Assay for Inhibitors Targeting the Menin-MLL Interaction in MLL Related Leukemias: Competition With Fluorescein Labeled MLL-derived Peptide; Fluorescence polarization, fluorescein-MLL peptide displacement from menin; FP activity change, % at 61.4 µM; 290,000 tested, under 10 active; AID 1766, 2009; inconclusive = falling polarisation curve, or a change in total fluorescence; inactive = total fluorescence flat and polarisation flat or rising; no compound was filed as active; the % refers to the polarisation; negative = inhibition;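 also: % of control where 0% means no effect; inhibitors lower the polarisation; unlabelled MLL peptide was the positive control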
gsp ag: qHTS for Agonist of gsp, the Etiologic Mutation Responsible for Fibrous Dysplasia/McCune-Albright Syndrome: qHTS. gsp mutant cells, cAMP HTRF, 30 min; control for the full effect not named in the record. Potency, µM (doses to about 76.9 µM), without a hit: at the top dose activation (cAMP increase), actives largely listed as activators. 340,000 compounds, 0.13% hits. AID 624287, 2012; active = well fitted activation curve with a large enough effect; inconclusive = small, poorly fitted or top-dose-only effect, or another doubt; inactive = no such curve, though single readings can be large or run the other way; cell line not stated here;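 also: phosphodiesterase inhibitor Ro 20-1724 added with compounds to block cAMP breakdown; potency is read from the fitted curve at half-maximal effect; nearly all actives have a fitted effect of over 60% in size; about a fifth of the inactives were tested at one dose only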
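Cells stably selected in G418 were plated at 2000/well, grown 16-24 hr, then given compounds in DMSO with the PDE inhibitor […] (300 uM solution added) for 30 min at 37C; cAMP was read by HTRF.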
D2 PAM: Beta-Arrestin HTS for Positive Allosteric Modulators of the Human D2 Dopamine Receptor: Potentiators; 360,000 compounds, 0.23% hits; D(2) dopamine receptor (Homo sapiens), P14416; potentiation, % (no concentration beside the values); DiscoveRx D2 beta-arrestin cells, luminescence, 90 min; 100% = 57 uM dopamine signal; active = potentiation of 50% or more; inconclusive = 30% to 50%; inactive = 30% or less;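 also: compound concentration not given in the record; tested on top of an EC20 dose of dopamine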
Target sequence (P14416 whole entry, looked up): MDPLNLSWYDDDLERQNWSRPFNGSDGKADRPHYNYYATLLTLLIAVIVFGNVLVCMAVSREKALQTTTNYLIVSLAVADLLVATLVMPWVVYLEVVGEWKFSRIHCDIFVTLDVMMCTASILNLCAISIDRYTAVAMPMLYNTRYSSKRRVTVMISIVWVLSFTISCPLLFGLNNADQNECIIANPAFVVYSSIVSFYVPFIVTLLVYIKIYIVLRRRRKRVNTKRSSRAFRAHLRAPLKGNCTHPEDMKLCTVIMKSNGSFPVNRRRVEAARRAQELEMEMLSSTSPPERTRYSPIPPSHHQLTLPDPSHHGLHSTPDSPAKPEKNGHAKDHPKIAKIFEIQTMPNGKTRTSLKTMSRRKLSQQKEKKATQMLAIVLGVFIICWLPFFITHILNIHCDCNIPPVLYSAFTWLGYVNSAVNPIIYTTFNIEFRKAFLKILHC
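PathHunter D2 cells, attached overnight at 37 deg C, received compound in DMSO plus dopamine at EC20 (50 nM final) for 90 min at 37 deg C. Beta-arrestin recruitment was read as luminescence after 1 h with detection reagent at ambient temperature.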
gsp antag: qHTS for Antagonists of gsp, the Etiologic Mutation Responsible for Fibrous Dysplasia/McCune-Albright Syndrome: qHTS. 340,000 compounds, 0.4% hits. AID 624288, 2012. Potency, µM (highest dose often 76.9 µM), for inactives: at the highest dose activity change, negative = inhibition, usual class: inhibitors. gsp-mutant cells, cAMP HTRF, 30 min; control for the full effect not named in the record; active = falling curve of any shape with a large fitted effect; inconclusive = falling curve, mostly with a smaller effect; inactive = flat or rising curve; cell line not stated here;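 also: intracellular cAMP measured with PDE inhibitor Ro 20-1724 present during compound exposure; potency is read from the fitted curve at half-maximal effect; % is scaled to controls: 0 for no effect and ±100 for the full control effect; nearly all actives have a fitted effect of over 65% in size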
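Cells in G418 medium, seeded 16-24 h, 37C; buffer exchange to DPBS + 1 mM CaCl2, 0.5 mM MgCl2, 0.05% BSA; cpds in DMSO + […] (300 uM stock), 30 min 37C; HTRF cAMP detection.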
Numbers without * were called inactive; ? = inconclusive; . = not tested or not shown; [ ] = dose if it differs, or a comment.

SMILES	TRPV1 PAM	ClpP mod	Sfp inh	Menin-MLL FL inh	gsp ag	D2 PAM	gsp antag
CCN(C(=O)CN1CCN(c2cccc(C(F)(F)F)c2)CC1)c1c(N)n(Cc2ccccc2)c(=O)[nH]c1=O	-6	.	17%	?	20%[15.4 µM]	-6	-1%
CCc1nn(CC(=O)NCCCN(CC)CC)c(=O)c2cc3sc(C)cc3n12	14	-10%	3%	-0.6	11%[15.4 µM]	0	15%
COC(=O)CCCNc1ncccc1[N+](=O)[O-]	-4	.	15%	-4.1	4%[15.4 µM]	-6	10%
Cc1ccc2c(c1)c(C)c(C)n2CC(O)CN1CCCCC1C (stereo not given)	12	4.7%	3%	1.4	-40%[inhibitor]	-5	6%
Cc1ccc(C(NC(=O)/C=C\c2ccc3c(c2)OCO3)C(=O)Nc2ccc3c(c2)OCO3)cc1 (stereo not given)	2	-2.3%	7%	.	10%[15.4 µM]	-13	-12%
O=C(N/N=C/c1cccc(OCC(=O)N2CCCC2)c1)C(=O)Nc1ccccc1F	-17	0.3%	?	0.6	9%[15.4 µM]	6	-6%
COc1c(O)cc(O)c2c(=O)cc(-c3ccccc3)oc12	.	1.8%	.	.	.	-30	-17%
CC1=C(C(=O)NCc2ccccc2)C(c2ccccc2OCC(N)=O)NC(=O)N1 (stereo not given)	11	0.8%	10%	-0.7	0%	2	1%
Cc1cc(OCC(=O)NCCCn2ccnc2)c2c(C)cc(=O)oc2c1	-6	4.3%	12%	.	?	-3	10%
Cc1oc2cc(O)ccc2c(=O)c1Oc1ccc2ccccc2c1	-5	1.0%	-8%	4.1	?	-11	-20%
CCOc1cc(NC(=O)c2cnccn2)c(OCC)cc1NC(=O)c1ccc(OC)cc1	30	.	17%	1.6	.	.	.
Cn1c(SC2C(=O)CC(C)(C)CC2=O)nnc1-c1ccco1	19	-0.8%	-11%	0.8	-9%	-3	-8%
CC(=NCc1ccco1)c1c(C(F)(F)F)[nH]n(-c2nc3ccccc3s2)c1=O	3	-0.3%	13%	17	-16%	-5	-13%
O=C(c1cccc(S(=O)(=O)N2CCOCC2)c1)N(CCO)Cc1ccccc1	-7	-4.3%	-24%	0.2	-23%	0	-8%
CCCCCCSc1ccc(-c2nc3ccc(C)cn3c2NC2CCCCC2)cc1	15	4.4%	.	.	.	-9	1%
COc1ccc(S(=O)(=O)NCCSCc2ccco2)cc1	1	-1.6%	-25%	7.7	7%	-15	-7%
COC(=O)c1cc(OC)c(OC)cc1NC(=O)c1ccc(C)o1	22	-6.2%	-3%	-0.5	-1%	-8	2%
COc1cccc(CN(CC(=O)NC2CCCC2)C(=O)Cn2nnc(-c3cccs3)n2)c1	3	0.1%	0%	1.1	2%	-1	6%
COc1cccc(C(C(=O)NC2CCCC2)N(C(=O)c2ccco2)c2ccc(-n3cnnn3)c(C)c2)c1OC (stereo not given)	6	.	10%	-0.8	-18%	-2	-11%
COc1ccc(NC(=O)Cn2ncc(Cl)c(Cl)c2=O)cc1S(=O)(=O)N1CCOCC1	1	-7.4%	-1%	6.7	-1%	0	9%
Cc1ccccc1NS(=O)(=O)c1ccc(C(=O)OCC(=O)NCC(C)C)cc1	9	.	23%	-0.3	26%	-2	-1%
COCCNC(=O)c1ccc(N2CC3CC(C2)c2cccc(=O)n2C3)c(NC(=O)c2ccc(C(C)(C)C)cc2)c1 (stereo not given)	.	3.0%	.	.	-96%[inhibitor]	-8	.
Fc1cccc(Cn2cc(C(=S)N3CCOCC3)c3ccccc32)c1	-7	-1.4%	-5%	-5.2	10%	-6	-6%
CN(C)S(=O)(=O)N1CCC(Oc2ccc(C(=O)NC3CCOC(C)(C)C3)cc2)CC1 (stereo not given)	1	1.5%	16%	.	18%	-6	21%
COCc1nc2ccccc2n1CCCOc1ccccc1	-3	0.6%	0%	0.2	-4%	-30	-2%
Cc1ccc(S(=O)(=O)Nc2cc3c(C(=O)O)c(C)oc3c3ccccc23)c(C)c1	7	-8.6%	12%	?	11%[15.4 µM]	18	-19%
CC1(C)CC(=O)C=C(c2ccc3ccccc3c2)C1	-8	5.0%	.	.	?	-8	-23%
CCC(C(=O)OCC(=O)Nc1ccc(C)c(S(=O)(=O)N2CCOCC2)c1)c1ccccc1 (stereo not given)	4	-3.1%	.	.	15%	6	-21%
CCN1CCCc2cc(CN(CCN3CCOCC3)C(=S)Nc3ccc(C)cc3)ccc21	7	.	17%	5.6	-55%[inhibitor][15.4 µM]	-19	-12%
Cc1ccc(NC(=O)Nc2nnc(Cc3ccc([N+](=O)[O-])cc3)s2)cc1C	2	-0.7%	-10%	-1.1	31%	7	-23%
C1=CCC(/C=N/n2cnnc2)CC1 (stereo not given)	-2	1.4%	9%	-1.4	17%	-6	5%
C=CCn1c(SCC(=O)Nc2ccc(N(C)C)cc2)nnc1-c1cccc(C)c1	2	-1.1%	3%	2.1	-15%	-4	-12%
COCC(=O)Nc1nnc(COc2ccc(Cl)cc2)s1	7	-3.2%	-2%	3.0	-1%	-2	1%
COc1ccc(C(=O)Nc2cc(C)c(NC(=O)c3ccccc3OC)cn2)cc1	0	.	-1%	-1.2	?	0	-17%
COCCNC(=S)N/N=C(\C)c1ccc(Cl)c(Cl)c1Cl	2	.	8%	-0.8	-3%[15.4 µM]	-8	-5%
CCCc1nc2sc3c(c2c(=O)n1NC(=O)CCCl)CCCC3	3	1.4%	3%	4.1	9%	-5	-10%
O=C(NC1CCCCC1)N1CCN(Cc2nc3ccccc3c(=O)[nH]2)CC1	.	0.6%	.	.	-9%[15.4 µM]	-9	-1%
CCOc1ccc(N2C(=O)CC(SCCN)C2=O)cc1 (stereo not given)	14	-2.1%	?	0.7	0%	2	14%
COc1ccc(CCC(=O)Nc2cc(S(=O)(=O)N3CCOCC3)ccc2OC(C)C)cc1	7	1.8%	.	.	-132%[inhibitor]	0	-17%
CCn1c(=O)c(-c2ccccc2)c(O)c2ccccc21	-7	-17%	16%	-0.7	10%	-13	1%
O=C(CCNC(=O)c1ccccc1Cl)OCC(=O)c1ccccc1	3	-2.1%	14%	-0.8	13%	-5	1%
COc1cc(NC(=O)c2cccs2)c(OC)cc1NC(=O)c1cccs1	.	3.6%	.	.	-50%[inhibitor]	8	-18%
CCOC(=O)c1cnn(-c2nc(-c3cccc(F)c3)cs2)c1C(F)(F)F	-5	28µM*	-3%	3.5	22%	-14	-8%
Cc1ccc(OCC(O)Cn2c(N3CCCCC3)nc3c2c(=O)[nH]c(=O)n3C)cc1C (stereo not given)	-1	0.2%	-4%	-9.5	-30%	3	-6%
COc1cc2c(cc1OC)CN(C(=O)c1ccc(N3CCCC3)c([N+](=O)[O-])c1)CC2	-9	-5.6%	.	.	-11%	1	-3%
COc1cc(NS(=O)(=O)c2ccc(N/C=C(\C=O)c3nc4cc(Cl)ccc4o3)cc2)nc(OC)n1	-6	-0.6%	-28%	?	8%	-23	-15%
O=C(NC1CCCC1)C(c1ccccc1)N(Cc1ccco1)C(=O)Cc1cccs1 (stereo not given)	-22	-3.2%	11%	-0.1	24%	-20	-1%
N#C/C(=C\c1c(N2CCCCCC2)nc2ccccn2c1=O)C(=O)NCc1ccco1	-6	.	-7%	7.7	16%[15.4 µM]	-2	2%
COc1ccc2c(c1)cc(C(=O)N[C@@H](CCSC)C(=O)N1CCC(C(=O)O)CC1)n2C	2	3.5%	7%	-1.7	?	-7	-13%
c1ccc(Oc2cccc(OCCCCSc3ncccn3)c2)cc1	-1	0.3%	1%	-1.4	12%	-8	-6%
c1ccc(-n2c(-c3ccncc3)nnc2-c2ccco2)cc1	-7	?	-4%	1.3	0%	-9	-15%
CNC(=O)c1ccccc1-c1ccccc1	-4	-0.2%	6%	0.3	-7%	2	5%
COc1ccc(/C(O)=C2/C(=O)C(=O)N(CCN3CCOCC3)C2c2cccnc2)cc1OC (stereo not given)	1	-1.2%	5%	3.8	-4%	8	11%
COc1cc(C(C)=O)ccc1OCC(=O)c1cc(C)n(C2CC2)c1C	-7	2.3%	-28%	5.9	11%	-2	-14%
O=C(O/N=C1\C(=O)N(c2ccccc2)c2ccccc21)C1CC1	2	.	-17%	7.0	5%[15.4 µM]	-7	-2%
C=CCN1CCN(c2ccncc2S(=O)(=O)N2CCN(C)CC2)CC1	.	-3.7%	.	.	17%	-13	.
COC(=O)c1ccccc1S(=O)(=O)Oc1ccc(-c2ccc(C(=O)O)cc2)cc1	-8	.	-4%	.	2%[15.4 µM]	0	28µM*
COc1ccccc1C(CCN(Cc1ccccc1)C(C)=O)c1ccco1 (stereo not given)	-8	.	56µM*	2.2	-18%[15.4 µM]	-6	0%
COC(=O)c1ccc(-c2cc3onc(-c4ccccc4)c3c(=O)n2C)cc1	?	-11%	.	.	.	-8	?
Cc1ccccc1N(CC(=O)NCC1CCCO1)C(=O)CNS(=O)(=O)c1ccc(F)cc1 (stereo not given)	-1	.	16%	3.1	9%[15.4 µM]	-8	.
CCOc1ccc(-c2nnn(CC(=O)Nc3cc(OC)cc(OC)c3)n2)cc1OCC	27	-3.3%	18%	0.7	1%	-11	1%
CCCC(C(=O)NCc1ccco1)N(C(=O)CNS(=O)(=O)c1ccccc1)c1ccc(OC)cc1 (stereo not given)	-3	.	-5%	0.0	-37%[inhibitor]	-4	-10%
CN(Cc1ccco1)C(=O)C1CCCN(c2ncnc3c2nc2n3CCCCC2)C1 (stereo not given)	16	-3.8%	8%	.	2%	-7	-24%

Screens: PubChem BioAssay, National Center for Advancing Translational Sciences (NCATS)
